Bioassay records deposited in PubChem BioAssay by several laboratories.
RanGTP-Impb inh: inhibitors of RanGTP-importin-beta interaction, primary screen, biochemical, FRET, CFP-Ran, YFP-importin-beta, homogeneous; Ran GTPase (GTP-bound) - importin-beta complex; cell-free CFP-Ran/YFP-importin-beta FRET ratio; inhibition, % (concentration not given with the values); 300,000 tested, 1.1% active;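 active = most replicates above 15%; inconclusive = exactly half above 15%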;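 note: 0% = DMSO wells and 100% = Ran loaded with GDP instead of GTP; wells of about 40 µL received 100 nL stock; the first replicate is given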
LANA-H2A inh: blockers of LANA interaction with H2A/H2B – biochemical, FP readout, HTS, primary screen; 320,000 tested, 0.6% active; cell-free LANA-H2A/H2B peptide, fluorescence polarization; AID 2629, 2010; inhibition, % (no concentration beside the values); in the data active = inhibition mostly above about 10%, no sharp cut-off; inactive = mostly below about 6.7%;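 note: stock transfer was 7.5 nL into about 10 µL; 0% = median of vehicle wells and 100% = median of positive control wells; one replicate is shown; the record names a cut of 25% in any replicate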
MLL AF4-AF9 inh: inhibitors of AF4 peptide binding to AF9, primary screen, biochemical, AlphaScreen, biotin-AF4 peptide, FLAG-AF9, single point | Protein AF-9 (Homo sapiens), P42568 | inhibition, % at 10 µM | 350,000 tested, 0.47% active | AID 651704, 2012;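 active = every replicate reaching a set inhibition limit, whatever the replicate mean, cut at about 25% in these data; inconclusive = mean inhibition reaches that limit but some replicates miss it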;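 note: 0% = plate neutral control median and 100% = total signal loss; the record names both 10 and 1 µM as test concentration; the first replicate is given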
Target sequence (P42568 whole entry, looked up): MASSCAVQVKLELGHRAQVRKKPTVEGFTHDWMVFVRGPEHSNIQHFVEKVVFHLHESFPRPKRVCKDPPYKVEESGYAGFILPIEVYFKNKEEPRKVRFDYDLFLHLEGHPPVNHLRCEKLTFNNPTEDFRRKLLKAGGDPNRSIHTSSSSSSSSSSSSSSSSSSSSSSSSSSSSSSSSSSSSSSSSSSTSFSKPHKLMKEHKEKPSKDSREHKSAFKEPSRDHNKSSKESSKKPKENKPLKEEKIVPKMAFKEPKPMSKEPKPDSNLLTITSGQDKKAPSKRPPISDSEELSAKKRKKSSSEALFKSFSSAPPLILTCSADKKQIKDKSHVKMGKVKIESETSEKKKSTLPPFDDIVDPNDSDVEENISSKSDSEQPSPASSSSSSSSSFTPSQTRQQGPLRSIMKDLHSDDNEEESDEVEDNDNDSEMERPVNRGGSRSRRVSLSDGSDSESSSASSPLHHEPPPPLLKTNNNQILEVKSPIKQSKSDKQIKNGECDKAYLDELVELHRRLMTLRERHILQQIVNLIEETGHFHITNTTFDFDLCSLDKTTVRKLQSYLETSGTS
A1 inh: caspase 3/7 activation in MEF A1-2A-BIM cells, primary screen, A1 inhibitor project, cell-based, luminescence, HTS. 330,000 tested, 0.066% active. caspase activation, % (concentration not given with the values). AID 2462, 2010. Caspase-Glo 3/7 luminescence, 3 h; percent of clofoctol response, vehicle zero;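 active = over half of replicate activation scores above 10%, or exactly half above 10 with the replicate mean above 10; inconclusive = replicate mean below 10 yet half the replicates above 10; inactive = over half of replicates below 10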;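 note: wells of about 30 µL received 50 nL stock; many hits fall short of the cut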
Vif TR-FRET: inhibitors of Vif binding to APOBEC3G peptide, primary screen, biochemical, TR-FRET, GST-Vif 1-94, biotin-A3G peptide, dose response retest (AID 1117319); Virion infectivity factor (Human immunodeficiency virus type 1 group M subtype B (isolate …; 260,000 tested, 0.57% active; inhibition, %, or IC50 in µM where a hit was titrated; TR-FRET GST-Vif / biotin-A3G peptide binding; higher % means a stronger effect; test concentration not given here; strong numbers were not always called active;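 active = above the screen mean plus three standard deviations and confirmed in dose response; inconclusive = results disagree or hit not tested in dose response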;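 note: Vif residues 1-94 fused to GST binding biotinylated APOBEC3G peptide 110-148; 0% = full assay without inhibitor and 100% = GST in place of GST-Vif; retest series ran down from 100 µM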
T cruzi inh: inhibitors of intracellular T. cruzi growth, primary screen, luminescence, NIH3T3 host cells; T. cruzi beta-gal in NIH3T3, 90 h; inhibition, % (test concentration not listed); 300,000 tested, 1.4% active; AID 1885, 2009;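 active = mean inhibition across valid replicates above about 55%, limit read from the data; inconclusive = mean below that limit but half or more replicates reach it; inactive = mean below it, under half of replicates reach it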;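 note: signal also drops with host cell toxicity which is not excluded here; 0% = plate median of DMSO wells and 100% = zero luminescence signal; higher percent means less beta-gal luminescence so fewer parasites; stock transfer was 50 nL into about 50 µL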
Calb FLC: C. albicans growth inhibition with fluconazole, primary screen, CaCi-2 strain, Alamar Blue fluorescence; C. albicans CaCi-2 (fluconazole-resistant clinical isolate) + fluconazole, 48 h; 300,000 tested, 0.57% active; growth inhibition, % (test concentration not listed); AID 1979, 2009;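 active = most replicates above 75%; inconclusive = exactly half above 75%; inactive = most below 75%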;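 note: all wells also contain fluconazole at 8 µg/ml as a sub-toxic cotreatment; 0% = median of DMSO wells and 100% = median of geldanamycin control wells; wells of about 8 µL received 7.5 nL stock; the first replicate is given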
Beta apoptosis: inhibitors of cytokine-induced beta cell apoptosis, primary screen, luminescence; INS-1E cytokine-induced death, ATP luminescence, 48 h; percent of positive-control rescue, neutral wells zero; protection from apoptosis, % (no concentration beside the values); 300,000 tested, 0.8% active;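 active = all replicates at 75% or more, or half of them and the mean; inconclusive = half reach 75% but not the mean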;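 note: 0% = cytokine-treated negative control wells and 100% = positive control rescue; higher means more ATP so stronger rescue from cytokine killing; wells of about 40 µL received 100 nL stock; the first replicate is given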
* hit, by the source's call; ? = inconclusive; nt = no result given.

SMILES	RanGTP-Impb inh	LANA-H2A inh	MLL AF4-AF9 inh	A1 inh	Vif TR-FRET	T cruzi inh	Calb FLC	Beta apoptosis
O=C(Nn1cnnc1)c1cccc(S(=O)(=O)N2CCOCC2)c1	?	1.0	-1.4	0.5	-11%	-6	2	-6
O=C(CCN1CCOCC1)c1ccc(Cl)cc1	?	-1.7	-2.4	0.8	3%	75*	-14	-4
CC1(C(=O)OCC(=O)N2c3ccccc3Sc3ccccc32)CC1(Cl)Cl (stereo not given)	?	1.2	-2.0	0.9	?	45	44	89*
OC(CNCc1ccc(Cl)c(Cl)c1)c1ccccc1 (stereo not given)	2.7	3.1	0.1	-0.5	1%	0	-19	-7
CN1CCN(C2Cc3ccc(F)cc3Sc3cc(F)c(Cl)cc32)CC1 (stereo not given)	0.6	-7.0	12	2.0	nt	51	42	nt
Cc1ccc(NS(=O)(=O)c2cccc(C(=O)NCCCN3CCCC3=O)c2)cc1	0.8	-3.4	-3.0	0.0	-3%	-7	0	1
COc1ccc(C(CC(=O)c2ccccc2)S(=O)(=O)c2ccccc2)cc1 (stereo not given)	4.7	1.8	nt	-4.8	nt	-3	-1	-16
O=C(CC(=O)NC1CCCCC1)N/N=C/c1ccc(Cl)cc1	-0.2	3.1	nt	0.1	11%	-3	-8	-5
CCN(CC)c1ccc2cc(C(N)=O)c(=O)oc2c1	153*	4.0	-17	-0.2	8%	18	2	-3
O=C(CN1CCOCC1)NNC(=O)c1ccc(Cl)cc1	nt	-1.9	-1.2	-0.3	nt	nt	nt	1
Cc1nn(S(=O)(=O)c2ccc(Cl)cc2)c(C)c1Sc1ccc([N+](=O)[O-])cc1	1.9	12*	2.1	-0.2	5%	62*	15	86*
N#Cc1cnn2ccn(C3OC(CO)C(O)C3O)c12 (stereo not given)	-3.0	1.9	-22	1.8	-6%	-6	15	-13
C=CCSc1nnc(NC(=O)c2c(CC)noc2C)s1	-3.7	3.5	-1.5	0.0	2%	3	28	2
CC(C)n1cnc2c(Nc3ccc(C(=O)O)cc3)nc(Cl)nc21	-3.9	-0.5	2.0	-0.7	-3%	-4	-19	-7
O=C(CSc1nc(-c2ccccc2)ns1)N1CCOCC1	5.3	2.3	-7.8	-1.7	-14%	-12	4	-5
CC(C)C(c1nnnn1Cc1ccccc1)N1CCN(Cc2ccc3c(c2)OCO3)CC1 (stereo not given)	-4.4	0.5	nt	0.0	1%	23	5	-5
CCOc1cc(NC(=S)NC)c(OCC)cc1NC(=O)c1cccs1	?	2.7	3.1	0.2	4%	-4	-5	4
C/C(=N/NC(=O)CNC(=O)c1ccco1)c1ccc(Cl)cc1	-1.0	4.0	1.2	0.3	nt	-2	-6	-5
Cc1nn(-c2ccccc2)c(/N=C/c2ccccc2O)c1-c1ccccc1	-0.4	-9.9	nt	-1.1	-5%	6	-5	-2
O=C(c1cc(F)ccc1F)C1CCCN(C(=O)CCN2CCCCO2)C1 (stereo not given)	-2.7	0.2	-1.1	-0.3	-2%	-7	-8	0
COc1ccc(C2=CC(=O)OC3(CCCC3)O2)cc1	-4.1	2.0	nt	1.2	-1%	-1	-5	nt
CCN1CCN(CC(=O)N2N=C(c3cccs3)CC2c2ccc(C)cc2)C(=O)C1=O (stereo not given)	2.1	-4.1	-0.8	0.5	1%	14	5	2
C(=C(c1ccccc1)c1ccccc1)c1ccccn1	1.6	-3.0	1.0	0.5	nt	-1	-22	0
Cc1cnc(NC(=O)CSCc2c(C)noc2C)s1	nt	-0.4	-3.7	1.9	-1%	nt	nt	0
CCN(c1ccc(OC)cc1)S(=O)(=O)N1CCCC(C(=O)NCc2cccc(C)c2)C1 (stereo not given)	-1.4	-2.6	-2.2	1.5	nt	-1	1	-3
O=C(NCc1ccncc1)C12CC3CC(CC(Cl)(C3)C1)C2	-1.1	3.5	2.3	1.0	nt	-5	-3	1
O=C(Nc1cnccn1)Nc1ccc(Cl)cc1Cl	-3.8	-1.4	nt	-0.9	1%	30	11	8
CC(C)c1ccc(NC(=O)CN2C(=O)NC3(CCCCCCC3)C2=O)cc1	nt	-0.6	-0.5	-0.2	-10%	nt	nt	1
Cc1cc(SCC(=O)OCC(=O)N2CCCC2=O)c(C)cc1Br	1.3	-2.2	2.3	-0.6	-8%	9	7	-8
Cc1ccc(NC(=O)COC(=O)c2ccc3c(c2)NC(=O)C2CCCN32)cc1 (stereo not given)	?	-1.6	nt	-0.3	-1%	-6	-5	-8
O=C(NC1CCCCC1)C(c1cccnc1)N(C(=O)c1csnn1)c1ccccc1 (stereo not given)	-7.7	-3.0	1.1	-0.7	nt	6	8	-3
CCc1c(C)nc(N)n2c(SCC(=O)N3CCCc4ccccc43)nnc12	4.1	-16	nt	1.9	15%	1	-6	-1
CCCN(CC(=O)Nc1ccccc1C)C(=O)c1ccc(-c2ccc([N+](=O)[O-])cc2)o1	nt	2.5	-19	0.2	13%	nt	nt	-2
Cc1ccc(NC2c3ncccc3C(=O)N2Cc2cccs2)cc1 (stereo not given)	-8.6	1.2	13	1.3	nt	0	-21	-4
CCOC(=O)C1CCN(Cc2coc3ccc(Cl)cc3c2=O)CC1	-1.3	-5.5	nt	0.2	-1%	-14	-2	0
CCCc1cc(=O)[nH]c(SCC(=O)Nc2ccc3c(c2)CCC3)n1	1.8	-1.9	-2.1	0.0	nt	-17	49	nt
COc1ccc(NC(=O)C(=O)NCC(c2ccco2)N2CCc3ccccc3C2)cc1OC (stereo not given)	-1.4	-1.6	-6.1	1.0	-1%	19	-4	-4
CN(C(=O)CCN1CCCO1)C1CCCN(Cc2ccccc2F)C1 (stereo not given)	2.7	3.5	-0.8	0.7	nt	4	-17	-3
CSCCn1c(C(C)(C)C)cc(C(=O)O)c1C	-1.1	-1.2	0.4	0.6	21%	-21	-1	-6
Cc1cc2ncc(-c3cccs3)nc2cc1C	3.8	5.1	0.3	-15	-1%	-3	6	22
COc1ccccc1-n1c(O)c(C=NCc2ccccn2)c2ccccc2c1=O	9.5	-3.0	2.6	0.0	-5%	12	5	1
CC(=O)Nc1ccc(S(=O)(=O)NCC2CCC(C(=O)N3CCCCC3)CC2)cc1 (stereo not given)	-1.7	-10	-1.3	-0.5	-3%	-5	1	-3
C/C(=N\NC(=O)CNC(=O)c1ccc2c(c1)OCO2)c1ccco1	?	0.7	-0.9	-1.5	?	-5	12	-2
COC(=O)c1ccc(NS(=O)(=O)c2ccccc2)o1	3.8	0.3	-6.3	0.6	10%	-8	14	nt
CCc1ccc(NC(=O)c2cc(-c3ccc(F)cc3)on2)cc1	-2.1	2.4	2.7	-0.4	?	-1	3	-4
O=C(NCCCn1ccnc1)c1cc(-c2ccccc2)on1	0.5	7.6	-1.2	0.4	nt	-1	20	35
Fc1cccc(COc2ccccc2C(=S)N2CCCC2)c1	-2.3	0.7	-16	0.4	-7%	5	37	-14
CCOC(=O)c1[nH]c2ccccc2c1NC(=S)Nc1cccc(C)c1	-16	5.1	4.7	-2.5	-16%	22	56	0
CCC(C)N(CCNC(=O)CC1Oc2ccc(C)cc2NC1=O)C1CCCCC1 (stereo not given)	?	-1.3	-4.5	-0.6	7%	-12	-4	1
O=C(CN1C(=O)NC2(CCCCCCC2)C1=O)NCc1ccc(Cl)cc1	nt	4.3	-2.8	-0.5	nt	nt	nt	-5
Cc1nnc(SCC(=O)c2ccc(C(C)C)cc2)s1	0.7	-1.5	-0.4	-0.1	4%	-6	-8	2
CCOC(=O)c1cnc2c(C(=O)OC)cccc2c1NCCN1CCOCC1	5.3	-5.2	nt	-0.6	1%	-2	1	4
CN(CC1CCCO1)S(=O)(=O)c1ccc(C(=O)Nc2ccc3c(c2)OCO3)cc1 (stereo not given)	?	2.6	0.8	0.7	nt	-1	1	7
CCn1c(=S)[nH]c2cc(S(=O)(=O)N3CCCCC3)ccc21	-0.8	0.2	0.9	1.8	-1%	12	19	-39
CCOC(=O)/C(=C\c1ccc(C)cc1)NC(=O)c1ccccc1	-2.6	-0.1	-3.4	0.5	0%	4	-1	2
COC(=O)c1ccc(Oc2nc(C)cc(Oc3ccccc3)n2)cc1	-0.3	1.6	nt	0.2	16%	-5	-17	-1
CNc1nc(SCc2ccc(C)cc2)nc2c1CCCC2	-10	0.6	nt	0.6	6%	25	1	-1
CCC(C)[C@H](NC(=O)[C@@H]1CSC2c3ccccc3C(=O)N21)C(=O)NCc1ccncc1 (stereo not given in full)	0.5	-1.7	1.7	0.0	5%	2	12	-5
Cn1c2ccccc2c2nnc(SCCN3CCOCC3)nc21	4.4	nt	-0.4	nt	3%	2	3	nt
COc1ccc(C(=O)NCCc2nnc3ccc(SCC(=O)Nc4ccccc4F)nn23)cc1	3.3	-6.5	-3.7	0.7	6%	9	-7	-5
Carrying on.
SMILES	RanGTP-Impb inh	LANA-H2A inh	MLL AF4-AF9 inh	A1 inh	Vif TR-FRET	T cruzi inh	Calb FLC	Beta apoptosis
CCCn1cc(CN2CCN(Cc3ccc(C)o3)C(CCO)C2)c(C)n1 (stereo not given)	3.2	-1.7	-0.7	-0.1	0%	-2	7	-1
CCOC(=O)c1cnc2c(c(C)nn2CC)c1NC1CC1	0.1	4.0	-1.7	-0.3	-1%	1	6	7
O=C(CN1C(=O)c2ccccc2S1(=O)=O)Nc1ncc(Cl)cc1Cl	nt	12	0.1	1.1	nt	nt	nt	2
Cc1ccc(Nc2nnc(C(C)(C)C)c(=O)n2N)cc1	2.1	-1.3	nt	-0.6	2%	6	3	-2
O=C(O)CCCN1C(=O)c2ccc(Oc3cccc([N+](=O)[O-])c3)cc2C1=O	?	-3.4	-0.7	1.0	0%	-7	-1	-10
Cc1ccc(-c2nnc(-n3nnc4ccccc43)c3ccccc23)cc1	-2.9	-1.6	nt	-0.4	-7%	15	4	-1
COc1cccc(NC(=S)NC2CC(C)(C)NC(C)(C)C2)c1	-3.7	0.8	3.6	0.5	14%	-9	-8	0
COc1cccc(CNC(=O)C2CCN(S(=O)(=O)c3ccc4c(c3)OCCO4)CC2)c1	2.1	-2.2	-0.2	-0.7	nt	5	-9	-1
O=C(CN(Cc1ccco1)Cc1ccco1)Nc1cc(S(=O)(=O)N2CCCCC2)ccc1Cl	nt	-2.1	0.7	0.8	nt	nt	nt	101*
COc1cc(C(=O)NC(=S)N(CCC#N)Cc2cccnc2)cc(OC)c1OC	nt	-1.7	-1.3	-0.2	4%	nt	nt	0
COc1ccc(/C=C/c2noc(-c3ccccc3O)n2)cc1	-1.7	-8.9	nt	-5.5	nt	-4	11	1
O=C(CCc1nc2ccccc2c(=O)[nH]1)Nc1ccc(N2CCCCC2)cc1	-6.5	0.6	-2.4	0.6	-4%	9	7	2
